Screens deposited in PubChem by several laboratories.
rRNA inh HTS: inhibitors of bacterial rRNA selective over humanized ribosomes; E. coli WT GFP vs humanized-ribosome RFP mutants, fluorescence, 24 h; stronger effect = lower value; DMSO median 0, no signal -100; GFP signal change (wild-type ribosome), % (test concentration not listed); 350,000 tested, 1.6% active; AID 720706;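 active means significant combined selectivity score with lowered wild-type GFP, culture density cut under 30%, mutant RFP and density less affected; inactive means any of these conditions unmet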; further: one replicate is shown; some compounds called inactive have numbers as strong as hits
B2AR ag: agonists of human beta-2 adrenergic receptor inducing internalization | response, % (concentration not given with the values) | 340,000 tested, 0.43% active | Am2.2-beta2AR cells, FAP receptor internalization, flow cytometry; reference of the scale not given here | P07550;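 active means response above a set limit, near 3 SD of response in nonfluorescent compounds, cut at about 42% in these data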;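 further: stock transfer was 100 nL into about 11 µL; a reference agonist was the positive control; negative values mostly stem from fluorescent compounds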
Ecoli growth: inhibitors of Escherichia coli growth. OD600, 23 h; stronger effect = lower value. OD600 absorbance (no concentration beside the values). 330,000 tested, 0.21% active;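 active means OD600 absorbance below the run mean of sample wells minus 3.6 SD, in any replicate, cut at about 0.56 in these data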;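 further: stock transfer was 300 nL into about 60 µL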
ALR inh: human ALR oxidase inhibition via reduced H2O2. AID 485317. inhibition, % (test concentration not listed). purified ALR, DTT oxidation, H2O2 HRP-luminol luminescence. 290,000 tested, 3.8% active. P55789;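 active means mean and each replicate at 75% or more; inconclusive means only one of the two met; inactive means neither met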;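 further: stock transfer was 7.5 nL into about 7.5 µL; 0% = neutral wells and 100% = wells with inactivated enzyme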
Target sequence (P55789 whole entry, looked up): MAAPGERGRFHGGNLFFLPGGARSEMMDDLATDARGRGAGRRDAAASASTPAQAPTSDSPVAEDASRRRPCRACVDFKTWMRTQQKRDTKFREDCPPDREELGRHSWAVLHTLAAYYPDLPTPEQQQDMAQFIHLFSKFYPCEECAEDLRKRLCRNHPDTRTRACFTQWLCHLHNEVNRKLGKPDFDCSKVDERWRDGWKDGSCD
UCH37 inh: blocks the human deubiquitinase UCH37. inhibition, % (no concentration beside the values). purified proteasome/UCH37, Ub-AMC cleavage fluorescence. 330,000 tested, 0.33% active. Q9Y5K5. AID 588478;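 active means mean of two replicates above 20%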;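 further: 0% = compound-free wells with enzyme and 100% = wells lacking proteasome; stock transfer was 100 nL into about 20 µL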
Target sequence (Q9Y5K5 whole entry, looked up): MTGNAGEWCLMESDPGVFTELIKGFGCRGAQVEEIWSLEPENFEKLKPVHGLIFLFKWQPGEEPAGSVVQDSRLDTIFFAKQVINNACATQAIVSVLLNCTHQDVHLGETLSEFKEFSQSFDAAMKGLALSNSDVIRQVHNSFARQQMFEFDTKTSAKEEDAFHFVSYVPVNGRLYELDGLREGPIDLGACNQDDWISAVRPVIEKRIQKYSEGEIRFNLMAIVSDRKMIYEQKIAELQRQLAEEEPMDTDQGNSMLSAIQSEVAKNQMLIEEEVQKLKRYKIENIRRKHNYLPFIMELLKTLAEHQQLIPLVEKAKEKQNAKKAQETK
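system = Proteasome-associated human UCH37 deubiquitinase | amount = 0.15 nM proteasome as dispensed | medium = pH 7.4 Tris-HCl (50 mM) with ovalbumin, ATP-MgCl2, DTT | incubation = 30 min preincubation with enzyme, 25 min cleavage at room temperature | detection = AMC fluorescence 355/460 nm | read-out basis = percent inhibition | controls = no-proteasome and no-compound wells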
FGF22 binding: FGF22 (human) thermal shift binding. Q9HCT0. recombinant FGF22 thermal shift, SYPRO orange fluorescence; percent of sucrose octasulfate shift, DMSO zero. calls only at 9.99 µM. 340,000 tested, 1.5% active;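 active means melting point raised past a set limit in the mean and every replicate; inconclusive means no clear call; three in four hits are not shown here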
HNF4A DNA FP: change in binding of human HNF4 alpha to DNA; P41235; HNF4a-FITC DNA binding, fluorescence polarization, 1 h; activity change, % at 10 µM; 360,000 tested, 0.3% active; AID 1224865; in the data active means activity change above about 30%, passing the limit was not always enough;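 further: controls were the assay level and a saturating level of protein; the project sought stronger binding though the title names inhibitors; some compounds called inactive have numbers as strong as hits; positive values seem to mean higher polarization but the record does not say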
Target sequence (P41235 whole entry, looked up): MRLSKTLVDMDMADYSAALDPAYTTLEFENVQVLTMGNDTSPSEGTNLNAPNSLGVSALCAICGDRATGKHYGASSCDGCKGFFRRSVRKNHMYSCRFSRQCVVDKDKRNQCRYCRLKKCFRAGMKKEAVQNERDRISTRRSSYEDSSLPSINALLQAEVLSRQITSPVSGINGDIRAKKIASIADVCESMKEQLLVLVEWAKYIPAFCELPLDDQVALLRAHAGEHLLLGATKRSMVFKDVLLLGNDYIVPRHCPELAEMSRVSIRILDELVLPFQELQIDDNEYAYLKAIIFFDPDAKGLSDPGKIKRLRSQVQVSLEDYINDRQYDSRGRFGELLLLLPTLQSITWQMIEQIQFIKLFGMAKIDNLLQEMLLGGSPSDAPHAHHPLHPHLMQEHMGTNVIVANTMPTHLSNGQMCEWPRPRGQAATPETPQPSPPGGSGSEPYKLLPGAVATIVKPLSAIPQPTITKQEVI
rRNA inh HTS OD600: second read-out of rRNA inh HTS, no call of its own (marks repeat the call); OD600 change, %; measured here: OD600 growth;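 optical density of the mix in the first replicate; 0 = DMSO median and -100 = no signal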
rRNA inh HTS RFP: further read-out of rRNA inh HTS, marked with its call; RFP signal change, %; measured here: RFP humanized mutant strains;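 first replicate; 0 = DMSO median and -100 = no signal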
The depositor's hits bear a star. Not all compounds are listed; count on the stated rates, not on these rows.

Sample of the layout:
Results for Cc1cc2c(s1)c1cnn(Cc3ccccc3F)c(=O)c1n2C ?
rRNA inh HTS: 2.5; B2AR ag: -11.0; Ecoli growth: 0.717; ALR inh: -6.7; UCH37 inh: 2.0; HNF4A DNA FP: -0.5; rRNA inh HTS OD600: 6.7; rRNA inh HTS RFP: -4.4

What do the screens show for `COc1cc(N2C(=O)C=CC2=O)c(OC)cc1Cl`?
rRNA inh HTS: 24.4; B2AR ag: -548.3; Ecoli growth: 0.638; ALR inh: 2.6; UCH37 inh: 1.0; FGF22 binding: inactive; HNF4A DNA FP: 4.9; rRNA inh HTS OD600: 20.4; rRNA inh HTS RFP: 2.2

Results, repeating the preview:
Results for Cc1cc2c(s1)c1cnn(Cc3ccccc3F)c(=O)c1n2C ?
rRNA inh HTS: 2.5; B2AR ag: -11.0; Ecoli growth: 0.717; ALR inh: -6.7; UCH37 inh: 2.0; HNF4A DNA FP: -0.5; rRNA inh HTS OD600: 6.7; rRNA inh HTS RFP: -4.4

What do the screens show for `COc1cc(N2C(=O)C=CC2=O)c(OC)cc1Cl`?
rRNA inh HTS: 24.4; B2AR ag: -548.3; Ecoli growth: 0.638; ALR inh: 2.6; UCH37 inh: 1.0; FGF22 binding: inactive; HNF4A DNA FP: 4.9; rRNA inh HTS OD600: 20.4; rRNA inh HTS RFP: 2.2

Results for Cc1cc(N/N=C/c2ccccc2)nc(NCc2ccccc2)n1 ?
rRNA inh HTS: -35.2*; B2AR ag: 8.1; ALR inh: -6.9; FGF22 binding: inactive; HNF4A DNA FP: -3.5; rRNA inh HTS OD600: -24.2*; rRNA inh HTS RFP: -5.9*

Results for Cc1ccc(S(=O)(=O)CC(=O)NC2CC2)cc1 ?
B2AR ag: 4.7; Ecoli growth: 0.759; ALR inh: -23.4; UCH37 inh: 0.1; HNF4A DNA FP: 0.1

How did COc1ccc(C)cc1NC(=O)C1CCC(CNc2c(N3CCOCC3)c(=O)c2=O)CC1 (stereo unspecified) do in these assays?
rRNA inh HTS: 9.5; B2AR ag: 5.9; Ecoli growth: 0.766; ALR inh: -11.5; UCH37 inh: 5.1; FGF22 binding: inactive; HNF4A DNA FP: 0.7; rRNA inh HTS OD600: 3.2; rRNA inh HTS RFP: -0.4

Results for COc1cccc(CN(C(=O)c2cccc(OC)c2)C2CCS(=O)(=O)C2)c1 (stereo unspecified) ?
rRNA inh HTS: 2.6; B2AR ag: 2.4; Ecoli growth: 0.664; ALR inh: 1.0; UCH37 inh: -0.2; FGF22 binding: inactive; HNF4A DNA FP: -3.9; rRNA inh HTS OD600: 2.6; rRNA inh HTS RFP: 1.2

What do the screens show for `N#CCCN(C(=O)COC(=O)c1ccc(S(=O)(=O)Nc2ccccc2)cc1)c1ccccc1`?
B2AR ag: 4.4; Ecoli growth: 0.648; ALR inh: -4.2; UCH37 inh: 4.0; HNF4A DNA FP: -0.1

What do the screens show for `COc1ccc2[nH]c3c(c2c1)CCN1C(=O)C(CC(=O)NCCc2ccccn2)C[C@H](C(=O)N2CCOCC2)[C@@]31C` (stereo partly specified)?
rRNA inh HTS: 14.5; B2AR ag: -6.7; Ecoli growth: 0.678; UCH37 inh: 2.0; FGF22 binding: inactive; HNF4A DNA FP: 1.4; rRNA inh HTS OD600: 13.0; rRNA inh HTS RFP: -0.3

How did Cc1cccc(N2CCN(C(=O)CCc3nc4ccccc4[nH]3)CC2C)c1 (stereo unspecified) do in these assays?
rRNA inh HTS: 5.2; B2AR ag: -8.3; Ecoli growth: 0.73; UCH37 inh: 5.1; FGF22 binding: inactive; HNF4A DNA FP: -0.2; rRNA inh HTS OD600: -11.2; rRNA inh HTS RFP: -9.3

Results for C[C@@H]1CN([C@H](C)CO)C(=O)CCCn2nncc2CO[C@@H]1CN(C)S(=O)(=O)c1ccccc1 ?
rRNA inh HTS: -2.0; FGF22 binding: inactive; HNF4A DNA FP: -1.1; rRNA inh HTS OD600: -12.4; rRNA inh HTS RFP: 1.6

How did CSC[C@H]1CN(CCc2ccccc2)C(=O)[C@@H]1CC(=O)Nc1ccccc1 do in these assays?
rRNA inh HTS: -2.1; FGF22 binding: inactive; HNF4A DNA FP: 1.0; rRNA inh HTS OD600: -0.6; rRNA inh HTS RFP: 0.1

How did CC(C)N1CCN(Cc2nc3ccccc3s2)CC1CCO (stereo unspecified) do in these assays?
rRNA inh HTS: 11.5; B2AR ag: -2.0; Ecoli growth: 0.695; UCH37 inh: -0.1; FGF22 binding: inactive; HNF4A DNA FP: 1.0; rRNA inh HTS OD600: 15.4; rRNA inh HTS RFP: 2.0

Results for Cc1ccc(-c2nc(N)n(C(=O)c3ccco3)n2)cc1 ?
rRNA inh HTS: 6.6; B2AR ag: -2.3; Ecoli growth: 0.712; ALR inh: 4.9; UCH37 inh: 3.7; FGF22 binding: inactive; HNF4A DNA FP: 2.2; rRNA inh HTS OD600: 5.7; rRNA inh HTS RFP: 0.0

How did C=C(NC(C)=O)c1c(F)cccc1F do in these assays?
rRNA inh HTS: 5.9; B2AR ag: -0.9; Ecoli growth: 0.655; ALR inh: -1.0; UCH37 inh: 1.4; FGF22 binding: inactive; HNF4A DNA FP: 3.8; rRNA inh HTS OD600: 12.6; rRNA inh HTS RFP: -4.1

What do the screens show for `CCCSc1cc(=O)n(-c2ccccc2)nc1C(=O)OCC`?
B2AR ag: 6.5; Ecoli growth: 0.706; ALR inh: 2.8; UCH37 inh: 3.0; HNF4A DNA FP: 5.2

How did O=C(NC1CCCC1)C(c1cccs1)N(C(=O)c1ccco1)c1ccc2c(c1)OCCO2 (stereo unspecified) do in these assays?
B2AR ag: 0.3; Ecoli growth: 0.767; ALR inh: 22.7; UCH37 inh: -5.6; HNF4A DNA FP: 2.0

What do the screens show for `COC(=O)[C@@]1(Cc2ccccc2)[C@H]2C(=O)N(Cc3ccccc3)C(=O)[C@H]2[C@H]2CN=C(SCC3CC3)N21`?
rRNA inh HTS: -24.2; B2AR ag: -2.6; Ecoli growth: 0.7; UCH37 inh: 3.2; FGF22 binding: inactive; HNF4A DNA FP: -1.2; rRNA inh HTS OD600: -36.1; rRNA inh HTS RFP: -10.7

What do the screens show for `Cc1ccc(S(=O)(=O)c2nnn3c2nc(N2CCC(C(N)=O)CC2)c2ccccc23)cc1`?
rRNA inh HTS: -5.4; B2AR ag: 0.8; Ecoli growth: 0.656; ALR inh: -6.3; UCH37 inh: 2.5; FGF22 binding: inactive; HNF4A DNA FP: 2.4; rRNA inh HTS OD600: -15.6; rRNA inh HTS RFP: -5.1

Results for COc1cc(OC)nc(C(NC(=O)C2CCN(Cc3ccc(Oc4ccccc4)cc3)CC2)c2ccccc2C)n1 (stereo unspecified) ?
rRNA inh HTS: 13.9; FGF22 binding: inactive; HNF4A DNA FP: -1.2; rRNA inh HTS OD600: -2.9; rRNA inh HTS RFP: 12.9

How did COc1ccc(NC(=O)CSc2ccc3nnc(-c4cccnc4)n3n2)c(OC)c1 do in these assays?
rRNA inh HTS: 4.2; B2AR ag: -1.5; Ecoli growth: 0.69; ALR inh: 13.9; UCH37 inh: 0.9; FGF22 binding: inactive; HNF4A DNA FP: -2.4; rRNA inh HTS OD600: 7.2; rRNA inh HTS RFP: -1.7

What do the screens show for `COc1cccc(NC(=O)C2CCN(S(=O)(=O)c3ccc(N4CCCC4=O)cc3)CC2)c1`?
rRNA inh HTS: 15.3; FGF22 binding: inactive; HNF4A DNA FP: -4.2; rRNA inh HTS OD600: 23.0; rRNA inh HTS RFP: 4.8

Results for CN1CCC(N2CCN(C3CN(Cc4cn(Cc5ccc(C(F)(F)F)cc5)nn4)S(=O)(=O)C3)CC2)CC1 (stereo unspecified) ?
rRNA inh HTS: 11.7; FGF22 binding: inactive; HNF4A DNA FP: -2.0; rRNA inh HTS OD600: 5.1; rRNA inh HTS RFP: -2.6

What do the screens show for `COc1ccc(Cn2c(=O)[nH]c3cc(C(=O)NCc4ccc5c(c4)OCO5)ccc3c2=O)cc1`?
B2AR ag: 8.3; Ecoli growth: 0.755; ALR inh: -7.0; UCH37 inh: -1.7; HNF4A DNA FP: 2.2

What do the screens show for `CN(C(=O)c1cccc(NC(=O)Cc2ccc([N+](=O)[O-])cc2)c1)C1CCC1`?
rRNA inh HTS: -0.5; B2AR ag: -7.8; Ecoli growth: 0.608; ALR inh: -1.8; UCH37 inh: -0.5; FGF22 binding: inactive; HNF4A DNA FP: 3.1; rRNA inh HTS OD600: 5.5; rRNA inh HTS RFP: -3.0

How did C#CCN(C[C@H]1[C@H](OC(=O)NC2CC2)[C@H](OC(=O)NC2CC2)C[C@H]2C(=O)N(c3ccccc3)C(=O)[C@@H]12)S(=O)(=O)c1ccc(C)cc1 do in these assays?
rRNA inh HTS: 15.3; FGF22 binding: inactive; HNF4A DNA FP: -5.9; rRNA inh HTS OD600: 7.6; rRNA inh HTS RFP: 2.0

How did O=C(CNC(=O)c1ccccc1)NCCO do in these assays?
rRNA inh HTS: 7.9; B2AR ag: 4.3; Ecoli growth: 0.709; ALR inh: 0.0; UCH37 inh: 3.9; FGF22 binding: inactive; HNF4A DNA FP: -2.6; rRNA inh HTS OD600: 13.7; rRNA inh HTS RFP: 2.5

How did COC(=O)CNC(=O)COC(=O)C(Cc1ccccc1)NC(=O)c1ccco1 (stereo unspecified) do in these assays?
B2AR ag: 1.4; Ecoli growth: 0.762; ALR inh: 7.6; UCH37 inh: 0.3; HNF4A DNA FP: 2.5

What do the screens show for `Cn1c(=O)[nH]c(=O)c2c1nc(NCc1ccccc1)n2CC(O)c1ccccc1` (stereo unspecified)?
B2AR ag: -5.6; Ecoli growth: 0.786; ALR inh: 8.0; UCH37 inh: 4.6; HNF4A DNA FP: 6.4

How did Cc1cnc(C(=O)OCC(=O)NCCc2ccccc2)cn1 do in these assays?
B2AR ag: 2.8; Ecoli growth: 0.724; UCH37 inh: 2.4; HNF4A DNA FP: 3.5

What do the screens show for `CCN(C(=O)c1sc(N)c(C#N)c1C)C1CCCCC1`?
B2AR ag: 3.0; Ecoli growth: 0.72; ALR inh: 95.6*; UCH37 inh: -3.7; HNF4A DNA FP: 1.4

Results for Cc1cc(C)cc(NC(=O)CSc2nc3ccccc3nc2N2CCCCC2)c1 ?
rRNA inh HTS: 9.4; B2AR ag: -3.7; ALR inh: -8.3; UCH37 inh: -3.4; FGF22 binding: inactive; HNF4A DNA FP: 1.9; rRNA inh HTS OD600: 10.6; rRNA inh HTS RFP: -10.9

Results for COc1cc(/C=C2\SC(=S)N(NS(=O)(=O)c3ccc(C)cc3)C2=O)ccc1O ?
rRNA inh HTS: -15.5; B2AR ag: 4.7; Ecoli growth: 0.663; ALR inh: 99.2*; UCH37 inh: 12.8; FGF22 binding: inactive; HNF4A DNA FP: 25.4; rRNA inh HTS OD600: 1.6; rRNA inh HTS RFP: 11.7

What do the screens show for `CCN(C(=O)c1cc([N+](=O)[O-])ccc1NCc1cccnc1)c1ccccc1`?
rRNA inh HTS: -4.4; B2AR ag: 4.8; Ecoli growth: 0.706; ALR inh: -1.9; UCH37 inh: 3.7; FGF22 binding: inactive; HNF4A DNA FP: 1.0; rRNA inh HTS OD600: -1.7; rRNA inh HTS RFP: -4.3

Results for CCOc1ccc(NC(=S)Nc2cc(C)[nH]n2)cc1 ?
rRNA inh HTS: -8.7; B2AR ag: 2.8; Ecoli growth: 0.701; ALR inh: inconclusive; UCH37 inh: 1.5; FGF22 binding: inactive; HNF4A DNA FP: -0.7; rRNA inh HTS OD600: 1.9; rRNA inh HTS RFP: -1.3

How did CC1=C(C(N)=O)C(c2cccs2)n2nc(-c3cccc(Cl)c3)nc2N1 (stereo unspecified) do in these assays?
B2AR ag: -8.8; Ecoli growth: 0.711; ALR inh: 13.9; UCH37 inh: 2.8; HNF4A DNA FP: 6.3
